High-throughput results (PubChem)
VDR inh – blocks the human vitamin D receptor. P11473. VDR-SRC2-3 peptide fluorescence polarization, 2 h. Potency, µM, for inactives: max response, negative = inhibition, usual class: inhibitors. hit rate 0.93% among 400,000; active = well fitted inhibition curve with a large enough effect; inconclusive = small, poorly fitted or top-dose-only effect, or another doubt; inactive = no such curve, though single readings can be large or run the other way; also: series mostly up to about 120 µM
Target sequence (P11473 whole entry, looked up): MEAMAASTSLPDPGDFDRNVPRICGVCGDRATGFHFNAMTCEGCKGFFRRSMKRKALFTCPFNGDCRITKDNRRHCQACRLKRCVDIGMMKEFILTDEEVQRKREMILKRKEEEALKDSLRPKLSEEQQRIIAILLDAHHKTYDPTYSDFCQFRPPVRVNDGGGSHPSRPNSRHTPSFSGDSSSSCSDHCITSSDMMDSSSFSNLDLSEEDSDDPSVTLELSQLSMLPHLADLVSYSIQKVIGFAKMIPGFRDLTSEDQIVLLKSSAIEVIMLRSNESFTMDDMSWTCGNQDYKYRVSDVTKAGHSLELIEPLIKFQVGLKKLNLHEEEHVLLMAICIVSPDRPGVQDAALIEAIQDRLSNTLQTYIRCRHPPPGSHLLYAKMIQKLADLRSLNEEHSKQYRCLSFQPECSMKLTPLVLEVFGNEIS
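Inhibition of the VDR/SRC2-3 peptide interaction is quantified by fluorescence polarization. Compounds (23 nl, pintool) incubate with the reagents for 2 hours at ambient room temperature.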
Numbers without * were called inactive; ? = inconclusive; & = joins results of further samples; [ ] = another dose, or the depositor's remark. % is scaled to controls: 0 for no effect and ±100 for the full control effect; potency is read from the fitted curve at half-maximal effect. An excerpt; rates above refer to the full screens.

canonical_smiles,VDR inh
CCN1CCN(c2nc3ccccc3nc2C(C#N)C(=O)OC2CCCCC2)CC1 (stereo not drawn),-11%
COC(=O)c1sc(NC(=O)c2ccc3c(c2)OCO3)c(C#N)c1C,-5%
CCN1CCN(c2ccc(S(=O)(=O)N3CCCCC3)cc2NC(=O)c2ccc([N+](=O)[O-])o2)CC1,-11%
NC(N)=Nc1nc(CSCC/C(N)=N\S(N)(=O)=O)cs1,4%
COc1ccc(-c2cccc(C3CC=CC4C3C(=O)N(Cc3ccccc3)C4c3ccc4ccccc4c3)c2)cc1 (stereo not drawn),-3%&-8%
Cc1nnc(SCC(=O)NNC(=O)COc2ccc(Cl)cc2)n1C,14%
CS(=O)(=O)N1CCCC(C(=O)NCc2ccccn2)C1 (stereo not drawn),-6%
CC1(C)C2CCC1(CS(=O)(=O)Nc1ccccc1)C(=O)C2 (stereo not drawn),13%
O=C(Nc1ccc(O)c(-c2nc3ccccc3o2)c1)c1cccs1,5%
COCCn1cnnc1SCC(=O)Nc1ccccc1C(=O)Nc1ccc2c(c1)OCO2,-8%
CCOC(=O)c1cnc(SC)nc1Oc1cccc(NS(=O)(=O)c2ccc(F)cc2)c1,-12%
Cc1cccc(NC(=O)C(=O)NCC2CCCN2S(=O)(=O)c2ccccc2)c1 (stereo not drawn),-3%
COc1cc(/C=C(\C#N)C(=O)NCCc2ccccc2)cc(OC)c1O,0%
CNc1nc(N)c(C(=O)C23CC4CC(CC(C4)C2)C3)s1,4%
FC(F)(F)c1ccccc1-c1cc(N2CCNCC2)ncn1,-6%
CCCCC(=O)OCC(=O)c1cc(C)n(-c2c(C)n(C)n(-c3ccccc3)c2=O)c1C,2%
O=c1nc2n(c3ccc(Br)cc13)CCS2,-8%
O=C(Cc1ccccc1)Nc1ccc(C(=O)O)cc1,-5%
Cc1cccn2c(=O)cc(COc3cccc(NC(=O)c4cccc(Cl)c4)c3)nc12,11%
CN(C)CCCNc1cc(C(C)(C)C)nc2c(-c3ccc(Cl)cc3)cnn12,3%
Cn1cccc1C(=O)Nc1ccc(N2CCOCC2)cc1,-1%
Cc1cc(O)ccc1N/C=C/c1onc(C)c1[N+](=O)[O-],18%
CC(C)(Oc1ccc(Cl)cc1)C(=O)OCC(=O)NCCc1ccccc1,0%
CN(C)c1cccc(C(=O)Nc2ccc3nc4n(c(=O)c3c2)CCCCC4)c1,1%
CCOC(=O)CN1C(=O)NC(C)(c2ccc(OC(F)F)cc2)C1=O (stereo not drawn),3%
Nc1nnnn1/N=C/c1cccc(Oc2ccccc2)c1,6%
COC(=O)c1ccc(OS(=O)(=O)N(C)C)cc1,-7%
C/C(CC(=O)Nc1cccc2c1CCCC2)=N\NC(=O)c1ccccc1N,-1%
O=S(=O)(NCc1ccccc1Br)c1cccs1,-1%
Cc1ccc(OS(=O)(=O)c2ccc(-c3csc(C)n3)s2)c(C)c1,4%
C=CCN1C(=O)NC(c2ccccc2)(C(F)(F)F)S/C1=C(\C#N)c1nnc(N2CCOCC2)n1-c1ccccc1 (stereo not drawn),-22%
CCC(CC)C(=O)N1CCc2cc(OC)c(OC)cc2C1COc1ccc2c(C)cc(=O)oc2c1 (stereo not drawn),6%
COCCNCc1ccc(C(C)C)cc1,15%
COc1ccc(CC(=O)O/N=C(\N)Cc2cccc3ccccc23)cc1OC,4%
Cc1ccc(N(Cc2cc3ccccc3[nH]c2=O)S(=O)(=O)c2ccccc2)cc1,-5%
CN(C(=O)CN(CCO)CC(=O)N(C)C(C)(C)Cc1ccccc1)C(C)(C)Cc1ccccc1,-26%&11%
CSc1nc(N2CCOCC2)c2c3c(sc2n1)CCCC3,5%
COc1cccc(CNc2nccn(-c3ccc(OC)c(OC)c3)c2=O)c1,7%
COC(=O)c1ccc(CN2CCc3ccccc32)cc1,-20%
CC(=O)c1cccc(Nc2cc(C)nc3c(C)cc(C)cc23)c1,28%
O=C(NC(N1CCOCC1)C(Cl)(Cl)Cl)c1ccc(Br)cc1 (stereo not drawn),13%
Cc1cc(C)cc(Nc2nc3ccccc3nc2-n2nc(C)cc2C)c1,1%
COc1ccc(CNC(=O)Cc2c(C)c3ccc(O)cc3oc2=O)cc1,4%
COCc1c(C(=O)OCC(=O)Nc2ccc(OC(F)F)cc2)oc2ccccc12,-4%
COc1ccc(/C=C2\NC(=S)N(CC3CCCO3)C2=O)c(OC)c1 (stereo not drawn),-13%
CC(OC(=O)c1cccc(-n2cnnn2)c1)C(=O)Nc1cccc(Cl)c1 (stereo not drawn),-5%
Cc1ccc(NC(=O)CCn2cnc3ccccc3c2=O)c(C)c1,-5%
COc1ccc(-c2cnc(C)o2)cc1S(=O)(=O)Nc1cccc(C(F)(F)F)c1,6%
Cc1cc(Cl)ccc1OC(C)C(=O)N1CCCN(C(=O)C(C)Oc2ccc(Cl)cc2C)CC1 (stereo not drawn),-6%
c1ccc2c(N3CCCC3)nc(-c3ccncc3)nc2c1,4%
COc1ccc(/C=C2\SC(=O)N(CC(=O)NN3CCN(C)CC3)C2=O)cc1OC,12%
COC(=O)/C=C/c1ccsc1NC(C)=O,-5%
CCC(C)NC(=O)CO/N=C/c1ccc(C(=O)OC)cc1 (stereo not drawn),-5%
COCCn1c(C)cc(C(=O)CSc2nc3nc(C)cc(C)n3n2)c1C,-19%
CN(C)c1ccc(-c2nc3ccccn3c2/N=C/c2ccc(Br)cc2)cc1,-22%
CC1CCC(NC(=O)Cn2ncc3ccccc32)CC1 (stereo not drawn),-13%
COc1ccc(-c2nc(CSc3nnc(C)n4c3cc3sccc34)c(C)o2)cc1,12%
O=C(/C=C/c1ccc2ccccc2n1)c1cc(Cl)ccc1O,19%
OCCNC(=S)Nc1ccc(Cl)c(Cl)c1,-21%
CCc1ccc(-c2cc3c(N4CCN(c5ccccc5)CC4)nccn3n2)cc1,7%

Additional results
canonical_smiles,VDR inh
CCCCCCCNC(=O)c1ccc(N2CCC3(CC2)OCCO3)c([N+](=O)[O-])c1,4%
Cc1ccccc1Nc1nn2c(=O)c3ccc(C(=O)NCCc4ccc(Cl)cc4)cc3nc2s1,9%
CCOc1ccc(C2C(C(=O)Nc3ccccc3)=C(C)Nc3nc(SCc4cccc(OC)c4)nn32)cc1 (stereo not drawn),-3%
Cc1ccc(C)c(Cn2c(=O)n(CCc3ccccc3)c(=O)c3c(C)c(C)sc32)c1,-7%
COc1ccc(S(=O)(=O)N2CCN(C(=S)NCC3CCCO3)CC2)cc1OC (stereo not drawn),17%
O=c1cc(N2CCOCC2)[nH]c(=O)n1Cc1ccc(F)cc1,-17%
Cc1cccc(CN2CCN(Cc3ccc(-n4cccn4)cc3)CC2CCO)n1 (stereo not drawn),5%
CSc1c(CC(=O)Nc2ccccc2C(F)(F)F)n(Cc2ccccc2)c2ccccc12,-8%
CCC(=O)c1c[nH]c(C(=O)N2CCN(c3ccccc3)CC2)c1,4%
CCOC(=O)Nc1ccc(OC)c([N+](=O)[O-])c1,13%
CCCOc1cccc(-c2nnc(N)s2)c1,-1%
CCOC(=O)c1c(NC(=O)CSc2nnc(N)s2)sc(C)c1-c1ccc(C)cc1,19%
O=C(Nc1cccnc1)c1ccc(CN2CCc3ccccc3C2)cc1,7%
Cc1ccc(-n2c(=O)c3c(c4cc(C)ccc4n3C)n(CC(=O)NCc3ccccc3)c2=O)cc1,13%
CCNC(=S)NNC(=O)Cn1nc(C)cc1C,-3%

For reference, some entries already given:
canonical_smiles,VDR inh
CCCCCCCNC(=O)c1ccc(N2CCC3(CC2)OCCO3)c([N+](=O)[O-])c1,4%
Cc1ccccc1Nc1nn2c(=O)c3ccc(C(=O)NCCc4ccc(Cl)cc4)cc3nc2s1,9%
CCOc1ccc(C2C(C(=O)Nc3ccccc3)=C(C)Nc3nc(SCc4cccc(OC)c4)nn32)cc1 (stereo not drawn),-3%
Cc1ccc(C)c(Cn2c(=O)n(CCc3ccccc3)c(=O)c3c(C)c(C)sc32)c1,-7%
COc1ccc(S(=O)(=O)N2CCN(C(=S)NCC3CCCO3)CC2)cc1OC (stereo not drawn),17%
O=c1cc(N2CCOCC2)[nH]c(=O)n1Cc1ccc(F)cc1,-17%
Cc1cccc(CN2CCN(Cc3ccc(-n4cccn4)cc3)CC2CCO)n1 (stereo not drawn),5%

Later entries:
mol	VDR inh
Cc1nn(-c2ccccc2)c(C)c1/C=N/NC(=O)CSc1nnc(SCc2cccc3ccccc23)s1	1%
O=C(Nc1cccnc1Cl)c1cccnc1Cl	0%
CC(C)Oc1cccc(C(=O)NC(=S)NCc2cccnc2)c1	0%
CCOC(=O)CC(NC(=O)Cc1ccccc1)c1ccccc1Cl (stereo not drawn)	-18%
CC(C)Cc1ccc(S(=O)(=O)Nc2cccnc2)cc1	-8%
O=C(O)c1cccc(CSc2nnc(-c3cccnc3)o2)c1	-11%
COc1ccc(OCCNC(=O)C(Cc2c[nH]c3ccccc23)NC(C)=O)cc1 (stereo not drawn)	9%
O=C1CN(S(=O)(=O)c2ccccc2)CCN1	0%
Cc1ccc(NC(=O)Cc2nnc(SCC(=O)Nc3ccc(N4CCOCC4)cc3)n2C)cc1	-8%
Cc1cc(C)c(C#N)c(SCc2ccccc2[N+](=O)[O-])n1	6%
c1ccc(-c2cc3cc4c(cc3cn2)OCO4)cc1	-3%
COCc1ccc(C(=O)NC(C)c2cnn(-c3ccccc3C)c2C)o1 (stereo not drawn)	1%
CCN(CC(=O)Nc1cccc(OC)c1)CC(=O)Nc1ccc(C)cc1Cl	12%
O=C(NCCN1CCOCC1)c1sc2cc(Cl)ccc2c1Cl	-25%
COCc1cc(=O)[nH]c(/N=C(\N)Nc2ccc(C)cc2C)n1	13%
O=c1ccc(S(=O)(=O)N2CCCC2)c[nH]1	1%
CC(=O)Nc1ccc(-c2cc(C(=O)O)c3ccccc3n2)cc1	-5%
O=C(OCC(=O)c1ccc[nH]1)c1ccc(C(F)(F)F)cc1	-8%
Cc1ccccc1Cn1cc(S(=O)(=O)c2ccc(Cl)cc2)c(=O)c2cc3c(cc21)OCO3	-1%
COc1cc(C(=O)OCc2cc(=O)oc3c(C)c(C)ccc23)ccc1OC(F)F	?
Cc1cc2cc3c(N)[nH]nc3nc2cc1C	-11%
CCOC(=O)c1c(C)n(C)c2cc(CN(C)C)c(O)c(S(=O)(=O)c3ccccc3)c12	16%
CC1(C)OC2OC(C(=O)N/N=C/c3cc(Br)ccc3O)C3OC(C)(C)OC3C2O1 (stereo not drawn)	-21%
Cc1cccc(OCC(=O)NCc2ccc3c(c2)CCN3C(=O)c2ccc(Cl)cc2)c1	17%
COc1ccc(/C=N/NC(=O)CCSc2nc3ccccc3s2)cc1	-25%
CCOC(=O)CSc1n[nH]c(NC(C)=O)n1	-1%
CC(/C=N\NC(=O)CN1CCN(Cc2ccccc2)CC1)=C\c1ccco1	-13%
COc1ccc(N=Cc2cc3c(cc2O)OC(N)=C(C#N)C3c2ccccc2)cc1 (stereo not drawn)	-19%
COC(=O)c1c(-c2cccs2)csc1NC(=O)COc1ccc(C)cc1	13%
O=C(CCC(=O)Nc1nnc(C2CCCCC2)s1)NCc1ccccc1	?

Among those listed so far, these contain a COOH group:
mol	VDR inh
O=C(Cc1ccccc1)Nc1ccc(C(=O)O)cc1	-5%
O=C(O)c1cccc(CSc2nnc(-c3cccnc3)o2)c1	-11%
CC(=O)Nc1ccc(-c2cc(C(=O)O)c3ccccc3n2)cc1	-5%

Going on with the list:
mol	VDR inh
O=C1CC(c2ccccc2)Cc2[nH]c(=O)c(-c3nc(-c4ccc(Cl)cc4)cs3)cc21 (stereo not drawn)	-13%
Cc1cc(Cl)ccc1NC(=O)CN1C(=O)C(=O)N(C2CCCC2)C1=O	-11%
COc1ccc(OCCn2cc(/C(N)=N/O)c3ccccc32)cc1	-1%
CC1CCCCN1S(=O)(=O)c1csc(C(N)=O)c1 (stereo not drawn)	4%
Cc1cccc(NC(=S)N(CCCN2CCOCC2)Cc2cn(C)c3ccccc23)c1	-13%
COc1ccc(-n2nc3ccc(NS(C)(=O)=O)cc3n2)cc1Cl	-8%
O=C(CCNS(=O)(=O)c1cccs1)N1CCN(c2ccc(F)cc2)CC1	10%
Cc1ccc(S(=O)(=O)Oc2cccc(N3C(=O)C4CC=CCC4C3=O)c2)cc1 (stereo not drawn)	-19%
COc1ccc(-n2c(=O)c3c4c(sc3n(CC(=O)NCc3ccco3)c2=O)CCC4)c(OC)c1	-1%
CCOc1ccc2nc(SC3CC(=O)N(c4ccc(C)cc4)C3=O)sc2c1 (stereo not drawn)	15%
CCOC(=O)c1c(C)c(C(=O)Nc2cc(OC)ccc2OC)c(C)n1CC	11%
CCc1noc(C)c1C(=O)Nc1nc(-c2ccccc2)c(C(C)=O)s1	94%[activator]
Cc1ccc(NS(=O)(=O)c2ccc(NC(=O)c3cccs3)cc2)cc1	25%
O=C1CSC(=S)N1/N=C/C=C/c1ccccc1	-5%
CC(C)N1CCN(S(=O)(=O)c2ccc3ccccc3c2)CC1	-23%
CSc1ncccc1C(=O)Nc1nc2ccc(F)cc2s1	-13%
CCCCCCCOc1ccc(C(=O)Nc2cccnc2)cc1	1%
Cc1[nH]n(-c2ccccc2)c(=O)c1N=Nc1ccc(C(=O)O)cc1	-16%
Cc1cc(C)c2nc(NNC(=O)c3ccc(S(=O)(=O)N4CCCCC4)cc3)sc2c1	7%
O=C1CC(c2ccco2)Sc2ccccc2N1 (stereo not drawn)	-9%
CCCCc1nc2cc(C(=O)N3CCNC(=O)C3CC(=O)OC)ccc2o1 (stereo not drawn)	-1%
COc1cccc(C(=O)N/N=C(\C)CC(=O)Nc2ccc(N(C)C)cc2)c1	-10%
Cc1ccc(CNc2nc3ccccc3n3nnnc23)cc1	-7%
O=C(CN1C(=O)C2CC=CCC2C1=O)NCC(=O)Nc1ccc(F)c(F)c1 (stereo not drawn)	5%
